# Assay outcomes as filed in PubChem BioAssay.
# ugtP null kill: growth inhibition of ugtP-null S. aureus, primary screen, RN4220 ugtP deletion, OD600 | 16 h; some inactives read as strong as hits | growth inhibition, % (no concentration beside the values) | 0.54% of 330,000 active | AID 1259309, 2017;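 active = z-score under -3 and OD600 up to 0.15 on both plates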;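 note: plate controls were untreated wells for no effect and antibiotic for full effect; wells of about 80 µL received 100 nL stock; the first replicate is given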
# Bead autofluor: flagged as autofluorescent in microsphere protease counterscreen. compound autofluorescence counterscreen, microsphere flow cytometry; active compounds read high. 3.1% of 360,000 active. fluorescence intensity (test concentration not listed);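 active = at least 3 SD above the mean of all compounds, about 16000 in these data; inconclusive = too few beads counted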;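 note: 100 nL of 1 mM stock went into each well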
# BJeLR lethal: MLPCN primary cell-based screen for lethality selective to Ras in HRASV12 cells; 0.17% of 300,000 active; inhibition, % (test concentration not listed); BJeLR (HRASV12) viability, CellTiter-Glo ATP luminescence, 48 h; reference of the scale not given here; AID 1554, 2009;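 active = replicate mean above 50%; inconclusive = above 50% but judged a plate artefact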;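 note: 50 nL library stock added to about 25 µL; numbers are from one replicate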
# PrP 5UTR inh: inhibition of PrP 5' UTR reporter expression; AID 488862, 2010; 0.35% of 340,000 active; inhibition, % (no concentration beside the values); cell-based PrP 5' UTR mRNA reporter, plate reader;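 active = every replicate at 50% or more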;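 note: 0 = median of the neutral control wells; tested in H4 reporter cells; numbers are from one replicate; inactives centre near -14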
# Sa RN4220 lethal: growth inhibition of S. aureus RN4220, primary screen, OD600. 16 h. inhibition, % (no concentration beside the values). 0.33% of 330,000 active;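 active = z-score of -3 or lower and OD600 up to 0.18 on both plates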;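 note: plate controls were untreated cells for no effect and reference antibiotic for full effect; stock transfer was 100 nL into about 80 µL; one replicate is shown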
# Mtb hypoxia rep: PubChem AID 1159583. M. tuberculosis hypoxia-regulated fluorescent reporter, fluorescence. fluorescence inhibition, % (no concentration beside the values). 0.1% of 300,000 active;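 active = 35 to 45% if threefold the growth effect, above 45% if 1.5-fold the growth effect; inactive = the rest, general growth blockers included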;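 note: wells of about 50 µL received 100 nL stock; 0% = vehicle wells and 100% = reference inhibitor wells; whole bacteria with a GFP reporter of the hypoxia response; strong numbers were not always called active; many hits fall short of the cut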
# Mtb hypoxia rep growth: further read-out of Mtb hypoxia rep, marked with its call; growth inhibition, %; measured here: M. tuberculosis growth (absorbance);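 0% = vehicle and 100% = reference antibiotic; read after six days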
# Starred values were filed as active, the others as inactive; ? = inconclusive; . = no result given; & = joins results of further samples. Outcome played no part in choosing rows. Share with any hit: about 4%.
SMILES,ugtP null kill,Bead autofluor,BJeLR lethal,PrP 5UTR inh,Sa RN4220 lethal,Mtb hypoxia rep,Mtb hypoxia rep growth
Cc1cc(S(=O)(=O)NC(C)C)ccc1OCC(=O)N1CCOCC1,15,10975,-8,-15,3.3,4,2
COCCN(C(=O)COC(=O)/C=C/c1nc2ccccc2s1)c1c(N)n(Cc2ccccc2)c(=O)[nH]c1=O,2,6156,-6,-3,1.3,2,13
CC(=O)Nc1cccc(C(=O)Nc2cccc3ncccc23)c1,1,4487,5,-5,1.0,0,3
CC(C)OC(=O)CSc1nnc(SCc2cccc3ccccc23)s1,29,2257,-10,-15,11,.,.
C[C@@H]1[C@H](O)C[C@@]23COC(=O)C2=CCC[C@@H]3[C@@]1(C)CC/C(=C/CO)CO,7,5726,.,-19,2.3,.,.
COc1ccc(C(=O)CC(=O)C(=O)Nc2cc(C)ccc2C)cc1,-5,3944,0,-16,-0.1,8,2
CCOC(=O)Nc1sc(C)c(C)c1C(N)=O,7,10048,10,-28,-1.1,-9,-4
COc1cc2c(cc1OC)-c1cc(NCc3ccccn3)nc(=O)n1CC2,-10,4554,-7,-17,0.1,.,.
CC(C)NC(=O)C1CCCN(S(=O)(=O)c2cccc3nonc23)C1 (configuration not stated),3,3681,-11,-14,4.6,-1,-4
COc1cc(/C=C/C(=O)OCC(=O)NC2CCCCCCC2)ccc1O,5,3990,.,2,4.0,0,11
Cc1cccc(C)c1NC(=O)CNC(=O)CNC(=O)Cc1cccc2ccccc12,6,9134,.,-18,8.0,10,-5
COc1ccc(S(=O)(=O)N2CCOCC2)cc1NC(=O)COC(=O)C1CC1C (configuration not stated),9,?,.,-16,6.7,8,5
CCNC(=O)CC1C(=O)N(CC)C(=S)N1NC(=O)c1cccnc1 (configuration not stated),5,4046,4,80*,0.0,12,1
CCCOc1ccc(-c2c(C(=O)N/N=C/c3cccs3)nnn2-c2nonc2N)cc1,.,4842,-1,-22,.,.,.
CCc1ccc(NC(=O)Cn2cnc([N+](=O)[O-])c2)cc1,.,3084,4,-11,.,.,.
CC(C)(C)n1nnnc1C(c1ccc(C#N)cc1)N1CCCC2(CCCCC2)C1 (configuration not stated),-6,13658,-4,-27,13,16,5
COc1ccc(C2(CNC(=O)c3cccc([N+](=O)[O-])c3)CCCCC2)cc1OC,6,7458,0,1,1.5,9,8
CC1=C(C(=O)OCCNC(=O)c2cccnc2)C(c2cccc([N+](=O)[O-])c2)C(C(=O)OCCN(C)C)=C(C)N1 (configuration not stated),0,7748,-2,-7,3.0,4,1
CCC1=NN(C(=O)c2ccc(Br)cc2)C(O)(c2ccccc2)C1 (configuration not stated),9,2184,18,-22,1.2,3,3
Cc1nc2ccc(NC(=O)c3c(-c4ccccc4)noc3C)cc2s1,8,4645,3,3,3.3,.,.
Cn1c(O)c(C(c2ccccn2)c2c(O)n(C)c(=S)n(C)c2=O)c(=O)n(C)c1=S,19,2377,-1,2,18,12,7
CCN(CC)C(=O)Cn1cc(C(=O)C(=O)NCCc2ccc(S(N)(=O)=O)cc2)c2ccccc21,-4,2628,-12,-5,7.4,3,1
CC(=O)C1=C(O)C(=O)N(CCc2c[nH]c3ccccc23)C1c1ccc(C)cc1 (configuration not stated),-1,2435,0,-19,25,5,1
C/C(N)=C(/C#N)C(=O)COC(=O)c1ccccc1C(=O)c1ccc(C)cc1,2,4249,-5,-6,8.4,-1,13
CCN(C1CCCCC1)S(=O)(=O)c1cc(C)ccc1OC,-11,3696,2,-6,10,5,7
# The results go on:
SMILES,ugtP null kill,Bead autofluor,BJeLR lethal,PrP 5UTR inh,Sa RN4220 lethal,Mtb hypoxia rep,Mtb hypoxia rep growth
Cc1cccc(C)c1Nc1ncnc2ccccc12,-2,3925,-5,-6,1.1,13,-3
C=C(C)Cn1c(SCC(=O)O)nnc1-c1ccc(OC)cc1,-2,5771,-5,-8,-1.2,-3,4
N#C/C(=C/c1ccc(Sc2nc3ccccc3[nH]2)o1)c1ccccc1F,4,16534*,-5,-16,14,6,5
O=C1CCN(CCc2ccccc2)CCN1C(CO)c1ccccc1 (configuration not stated),0,.,.,.,7.6,-3,-14
N#CC1=C(N)Oc2cc3ccccc3cc2C1c1cccnc1 (configuration not stated),10,2421,12,-5,2.3,17,10
Cc1nc2sc(C(c3cccs3)N3CCN(C(=O)c4ccco4)CC3)c(O)n2n1 (configuration not stated),-4,5786,-4,-7,-9.3,13,9
CC(C)Oc1cccc(C(=O)NC(=S)Nc2ccccc2)c1,5,2424,-4,-77,2.9,4,1
COc1ccc2c(C(F)(F)F)cc(=O)oc2c1C,5,4609,-3,-16,4.8,7,5
COC(=O)CSc1nc(C2CC2)nc2ccccc12,7,7164,3,-13,17,2,-2
O=C(c1ccc2c(c1)C(=O)N(Cc1ccco1)C2O)N1CCOCC1 (configuration not stated),4,5038,-4,-8,-0.1,.,.
COc1cccc(CNC(=O)CCCC(=O)Nc2cccc([N+](=O)[O-])c2)c1,1,3389,5,-9,3.0,-2,4
COC(=O)CNC(=O)C12CC3(C)CC(C)(CC(C)(C3)C1)C2,1,2978,-1,-13,6.4,3,10
CC(=O)Nc1ccc2c(c1)CCCN2C(=O)c1ccccc1,10,2463,-7,-15,-0.1,.,.
Cc1cccc(CCNS(=O)(=O)c2cnc[nH]2)c1,2,4182,0,-52,2.8,-1,11
CC(C)c1onc(C(=O)N2CCN(c3ccc(F)cc3)CC2)c1[N+](=O)[O-],9,5443,-4,-30,6.8,7,-10
C#CCOc1ccc2c3c(c(=O)oc2c1)CCCC3,-4,3331,-14,-15,6.6,2,-9
CCC(C)[C@@H](NC(=O)OC(C)(C)C)c1nnc(S(=O)(=O)Cc2cccc(C)c2)o1 (some centres not stated),10,2236,0,-4,3.3,.,.
CNC(=S)N/N=C/c1ccc(N(C)C)cc1,.,5593,-3,-45,.,.,.
Cc1c(NC(=O)c2ccc(S(=O)(=O)N(C)C)cc2)cccc1-n1cnnn1,6,7806,.,-16,5.0,13,13
COc1ccccc1-c1cc(C(=O)NCc2ccc(F)cc2)no1,1,16081,-10,-2,-2.1,6,-1
CCOC(=O)c1ccccc1NC(=O)CSc1nc2ccccc2n1CC(=O)N1CCCC1,-5,12502,-6,-8,-0.7,0,-4
CCOC(=O)c1cccc(NC(=O)COC)c1,10,2344,-5,-19,-0.9,.,.
Cc1cc(C)cc(Nc2nc3ccc(C)cc3n3cnnc23)c1,-7,3944,-4,-14,0.3,-4,-13
Cc1ccc2c(c1)OC(c1ccc3c(c1)OCCO3)CC2=O (configuration not stated),1,3949,-7,-36,1.1,13,4
CCCS(=O)(=O)c1ccc(COC(=O)c2cccc(NC(=O)C(C)C)c2)cc1,-3,3440,-3,-7,5.3,-3,-3

# Single records (already shown). Values in the order: ugtP null kill	Bead autofluor	BJeLR lethal	PrP 5UTR inh	Sa RN4220 lethal	Mtb hypoxia rep	Mtb hypoxia rep growth
# Profile of Cc1nc2sc(C(c3cccs3)N3CCN(C(=O)c4ccco4)CC3)c(O)n2n1 (configuration not stated) : -4	5786	-4	-7	-9.3	13	9
# Profile of CNC(=S)N/N=C/c1ccc(N(C)C)cc1 : .	5593	-3	-45	.	.	.
# Profile of O=C1CCN(CCc2ccccc2)CCN1C(CO)c1ccccc1 (configuration not stated) : 0	.	.	.	7.6	-3	-14
# Profile of COc1cccc(CNC(=O)CCCC(=O)Nc2cccc([N+](=O)[O-])c2)c1 : 1	3389	5	-9	3.0	-2	4
# Profile of N#CC1=C(N)Oc2cc3ccccc3cc2C1c1cccnc1 (configuration not stated) : 10	2421	12	-5	2.3	17	10

# Filtered by structure: the entries above with a thiophene ring, fused or not
SMILES,ugtP null kill,Bead autofluor,BJeLR lethal,PrP 5UTR inh,Sa RN4220 lethal,Mtb hypoxia rep,Mtb hypoxia rep growth
CCOC(=O)Nc1sc(C)c(C)c1C(N)=O,7,10048,10,-28,-1.1,-9,-4
CCCOc1ccc(-c2c(C(=O)N/N=C/c3cccs3)nnn2-c2nonc2N)cc1,.,4842,-1,-22,.,.,.
Cc1nc2sc(C(c3cccs3)N3CCN(C(=O)c4ccco4)CC3)c(O)n2n1 (configuration not stated),-4,5786,-4,-7,-9.3,13,9

# Next part:
SMILES,ugtP null kill,Bead autofluor,BJeLR lethal,PrP 5UTR inh,Sa RN4220 lethal,Mtb hypoxia rep,Mtb hypoxia rep growth
CC(C)(C)c1ccc(S(=O)(=O)N(CCCN2CCOCC2)Cc2cccs2)cc1,4&29,3000&11483,-7,-16,2.4&9.0,-1&13,6&8
Cc1c(N/N=C(\C#N)C(=O)c2ccc(Cl)cc2)c(=O)n(-c2ccccc2)n1C,1,2450,13,22,44,16,3
CC1(C(=O)OCC(=O)NC(=O)c2ccccc2)CC1(Cl)Cl (configuration not stated),-3,?,-6,-8,-1.3,-11,2
COc1cccc(C2c3[nH]c4ccccc4c3CCN2Cc2cnc(C)s2)c1OC (configuration not stated),0,4890,-6,-9,-5.3,-1,8
CCCN(CCC)C(=O)CSc1nc2n[nH]c(C)c2c(=N)n1-c1ccc(OCC)cc1,-18,4293,-4,6,6.8,.,.
O=C1CCCN1CCCNc1ccc2nnc(CCC(=O)N3CCN(c4ccc(F)cc4)CC3)n2n1,-3,5832,4,-3,-3.8,-9,-13
CCOc1ccccc1C(=O)NCC(=O)Nc1ccc(-c2ccccc2)cc1,1,5691,0,-8,-0.1,12,2
CC(=O)c1cccc(NC(=O)c2ccc(NC(=O)CC3SC(N4CCCCC4)=NC3=O)cc2)c1 (configuration not stated),-6,5652,-25,-1,2.9,7,5
O=C(CCN=C1NS(=O)(=O)c2ccccc21)OCc1nnc(-c2ccccc2)o1,-5,5555,5,-2,1.8,-2,-8
CCOC(=O)/C(=C/C=C1\Sc2ccccc2N1CC)C(C)=O,-4,3709,13,-12,-0.1,-16,2
O=C(CON=Cc1ccc(OC(F)F)cc1)NC1CCCCCC1,6,.,.,.,-1.9,-1,-2
NC(=O)c1c(NC(=O)COC(=O)CSc2nnc(-c3ccc(Cl)cc3)o2)sc2c1CCC2,-8,4274,-14,-24,11,6,8
CCCCN(CCCC)S(=O)(=O)c1ccc(C(=O)Nc2nnc(COC)o2)cc1,35,3156,9,-19,58,6,5
COC(=O)CSc1nc(C)c(C)c(C)c1C(N)=O,5,2266,4,-34,1.7,6,1
CSCCC(NC(=O)c1ccc(C(C)(C)C)cc1)C(=O)O (configuration not stated),0,4768,-8,-10,5.1,8,8
CC(C)CCN1C(Nc2ccccc2)=NCC1C (configuration not stated),0,.,.,.,5.8,4,4
O=C(C1CCC1)N1CCN(c2ccc(Cl)cc2)CC1,12,3058,4,-23,2.9,12,3
Cc1ccc(CSCCNC(=O)c2ccc(Cl)c(S(=O)(=O)N3CCOCC3)c2)cc1,-7,20110*,-7,-48,3.2,6,13
CC[n+]1c(/C=C/N(C)c2ccccc2)oc2ccccc21,2,10822,17,-20,2.9,2,6
CN(C)c1ccc(C(=O)c2ccc(O)cc2O)cc1,-3,4427,-11,-64,1.2,.,.
CCc1nc2nc(C)c(NS(=O)(=O)c3ccc4c(c3)CCCC4)c(=O)n2[nH]1,15,4034,-5,-16,3.0,21,38
O=C(Nc1ccc(Oc2ccccc2)nc1)C1CCN(Cc2ccco2)CC1,.,5845,-5,-7,.,.,.
Cn1c(SCc2ccc(Br)cc2)nc2ccccc2c1=O,8,4070,-3,-23,12,19,-1
CCC(C)c1ccccc1NC(=O)COC(=O)CCc1cc(OC)c(OC)c(OC)c1 (configuration not stated),3,2231,0,-29,-1.4,-1,6
C=CCn1c(=S)[nH]c2cc(C(=O)NCCc3ccc(S(N)(=O)=O)cc3)ccc2c1=O,-3,3031,.,-7,3.7,-2,0
